# Screening data as filed in PubChem BioAssay.
# VDR inhibitor = Inhibitors of the vitamin D receptor (VDR): qHTS; VDR-SRC2-3 peptide fluorescence polarization, 2 h; Potency, µM, for inactives: max response, negative = inhibition, hits mostly inhibitors; actives 0.93% (n = 400,000); AID 504847, 2011; active = well fitted inhibition curve with a large enough effect; inconclusive = small, poorly fitted or top-dose-only effect, or another doubt; inactive = no such curve, though single readings can be large or run the other way; also: series mostly up to about 120 µM
# Target sequence (P11473 whole entry, looked up): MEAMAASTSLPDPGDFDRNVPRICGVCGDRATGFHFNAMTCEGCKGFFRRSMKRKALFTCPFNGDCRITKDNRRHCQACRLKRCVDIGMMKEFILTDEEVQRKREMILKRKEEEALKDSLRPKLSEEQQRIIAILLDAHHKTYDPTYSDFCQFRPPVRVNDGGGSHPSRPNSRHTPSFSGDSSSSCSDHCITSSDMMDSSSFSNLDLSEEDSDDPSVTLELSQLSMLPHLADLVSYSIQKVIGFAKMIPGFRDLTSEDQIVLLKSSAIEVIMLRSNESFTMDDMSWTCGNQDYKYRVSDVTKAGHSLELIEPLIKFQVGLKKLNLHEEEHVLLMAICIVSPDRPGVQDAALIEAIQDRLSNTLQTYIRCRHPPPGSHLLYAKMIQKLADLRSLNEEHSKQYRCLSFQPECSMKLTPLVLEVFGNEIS
#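 Fluorescence polarization assay measuring small-molecule disruption of VDR binding to the coregulator peptide SRC2-3. Compounds were pin-transferred (23 nl) into the reagent mix and incubated 2 h at room temperature before reading.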
# * marks the source's active call; other numbers are inactive results; u = inconclusive; & = joins results of further samples; [ ] = another dose, or the depositor's remark. % is scaled to controls: 0 for no effect and ±100 for the full control effect; potency is read from the fitted curve at half-maximal effect.
VDR inhibitor	smiles
0%	Cc1cc(C)n2nc(SCC(=O)N3CCCCC3C)nc2n1 (stereo unspecified)
-6%	O=C(O)CCc1ccc(S(=O)(=O)Nc2ccccc2N2CCCCC2)cc1
20%	Cc1c(Cl)c(C(=O)NC2CCCC2)nn1C
4%	CCOC(=O)c1ccc(CN(Cc2ccc(F)cc2)S(=O)(=O)c2cc(C(=O)Nc3ccccc3CC)ccc2F)cc1
u	O=C(CN1CCN(Cc2ccccc2)CC1)Nc1nnc(C(F)(F)F)s1
-4%	COc1cc(/C=N/NC(=O)c2cccs2)ccc1O
7%	Cn1nc(C(=O)OCC(=O)Nc2ccc(S(N)(=O)=O)cc2)c2ccccc2c1=O
-11%	Cc1ccc(O)c(N=Nc2ccc(S(=O)(=O)N3CCCC3)cc2)c1
9%	Cc1cc(C(=O)N/N=C/c2cc([N+](=O)[O-])ccc2O)c2ccccc2n1
70%[activator]	CCOc1ccc(-c2noc(-c3ccncc3)n2)cc1OCC
-20%	Nn1c(SCC(=O)NCCC2=CCCCC2)nnc1C1CCCCC1
-5%	O=C(Oc1ccc(/C=N/NC(=O)c2ccccn2)cc1)c1cccc(F)c1
-6%	COc1ccc(Sc2ccc(-c3nc4cnccn4c3NC3CCCCC3)cc2OC)cc1
-2%	O=C(Nc1cccc(O)c1)c1ccc2c(c1)C(=O)N(Cc1ccco1)C2=O
1%	COc1cc(C(c2nnnn2C(C)(C)C)N2CCN(C)CC2)cc(OC)c1OC (stereo unspecified)
3%	CC(=O)Nc1ccc(NC(=O)C(C)OC(=O)c2ccc3c(c2)OCCO3)cc1 (stereo unspecified)
0%	O=C(c1cc(-c2ccc3c(c2)OCO3)on1)N1CCN(c2ccccc2)CC1
-7%	COc1cccc(Nc2ncnc3ccccc23)c1
-12%	O=C1[C@@H]2[C@@H]3C[C@@H]([C@H]4ON=C(c5ccc(Cl)cc5)[C@@H]34)[C@@H]2C(=O)N1C1CCCCC1
-11%	CS(=O)(=O)N1CCC(C(=O)Nc2cc(Cl)ccc2Cl)CC1
12%	O=C(NCc1ccccc1)c1ccc2c(c1)nc1n2CCOC1
0%	CC(C)Oc1cccc(C(=O)Nc2ccc3oc(-c4ccccc4)nc3c2)c1
-10%	O=C(NNS(=O)(=O)c1ccc(Cl)cc1)c1cc(-c2ccccc2)nc2ccccc12
-14%	CC(=O)c1ccc(OCC(=O)N2CCCC2c2ccc3c(c2)OCCCO3)cc1 (stereo unspecified)
-10%	Nc1cccc(-n2cccc2)c1
9%	CN(C(=O)c1cccc(NC(=O)Cc2ccc([N+](=O)[O-])cc2)c1)C1CCC1
6%	CCC1(O)CC(c2ccccc2)=NN1C(=O)c1ccccc1F (stereo unspecified)
0%	CCC1CCCCN1C(=O)c1nn2cccnc2c1Cl (stereo unspecified)
-14%	CCOC(=O)C1CCN(C(=O)CNC(=O)Cn2c(C)cc3ccccc3c2=O)CC1
-2%	Cc1cc(=O)[nH]c2c1c(C)nn2C1CCOC(C)(C)C1 (stereo unspecified)
-3%	Cc1ccc(C2=NN(C(=O)CCCC(=O)O)C(c3ccc4c(c3)OCO4)C2)cc1 (stereo unspecified)
7%	CC(=O)c1ccc(NC(=O)COc2ccccc2C(=O)Nc2ccc(C)cn2)cc1

# Molecules above that have a COOH group, in the order listed:
VDR inhibitor	smiles
-6%	O=C(O)CCc1ccc(S(=O)(=O)Nc2ccccc2N2CCCCC2)cc1
-3%	Cc1ccc(C2=NN(C(=O)CCCC(=O)O)C(c3ccc4c(c3)OCO4)C2)cc1 (stereo unspecified)

# More results
VDR inhibitor	smiles
0%	CCN(CC)CCN(Cc1cc2cc3c(cc2[nH]c1=O)OCO3)C(=S)NCCCN(C)C
-3%	O=C(NC12CC3CC(CC(C3)C1)C2)c1cc2nc(-c3ccco3)cc(C(F)(F)F)n2n1
-3%	CCCc1cc(NCc2ccccn2)n2c(nc3ccccc32)c1C#N
7%	O=S(=O)(c1ccc(C(F)(F)F)cc1)N1CCN(c2nc(-c3cccs3)nc3ccccc23)CC1
-9%	Cc1cc(NS(=O)(=O)c2ccc(NC(=O)Nc3ccccc3)cc2)no1
-18%	COc1cc2c(cc1OC)-c1cc(N3CCCCCC3)nc(=O)n1CC2
3%	O=C(O)c1ccc(CSc2n[nH]c(-c3ccco3)n2)cc1
-5%	Cc1ccc(N=Cc2nc(/C=C/c3cccc([N+](=O)[O-])c3)oc2O)cc1
-6%&3%	COc1ccc(CNC(=O)C2CCN(S(=O)(=O)c3ccc4nc5c(c(C(=O)O)c4c3)CC(C)CC5)CC2)cc1 (stereo unspecified)
1%	Clc1ccc(CSc2nnc(-c3ccncc3)o2)c(Cl)c1
12%	COc1ccc(-c2cc(C(F)(F)F)n3nc(C(=O)N4CCCC4)cc3n2)cc1
18%	COc1ccccc1/C=C/c1nc(C#N)c(NC2CCCCC2)o1
-19%	CCc1ccc(-c2nn(-c3ccccc3C)cc2C(=O)N2CCN(C3CCS(=O)(=O)C3)CC2)cc1 (stereo unspecified)
u	O=C(Oc1c(-c2ccccc2)c(=O)n2c3c(cccc13)CC2)c1cccc([N+](=O)[O-])c1
20%	CCc1nc2oc3ccccc3c(=O)c2c(=O)n1-c1ccc(C)cc1
-3%	Cc1csc(NC(=O)C2CCN(S(=O)(=O)c3ccc4c(c3)oc(=O)n4C)CC2)n1
-8%	CCOC(=O)CN(C(=O)Cn1nnc2ccccc21)C(C(=O)NCCOC)c1ccccc1 (stereo unspecified)
-11%	COc1ccc(C(=O)NNC(=O)c2ccc(C)cc2)cc1S(=O)(=O)N1CCCC1
3%	CCOC(=O)N1CCN(C(=O)CCc2ccccc2)CC1
-16%	O=C(Cn1nc(-c2ccccc2)ccc1=O)N1CCOCC1
-21%	COc1ccccc1C1=Nn2c(nnc2C2CCCCC2)SC1
-4%	CCOC(=O)N1CCN(C(=O)C2CCN(C(=O)Nc3ccccc3)CC2)CC1
0%	CCOc1cc(CNCCSc2nnnn2C)cc(Br)c1OCc1ccccc1F
-19%	COc1c2ccc(C(=O)NCc3cc(C(F)(F)F)cc(C(F)(F)F)c3)cc2nn1C
-9%	Cc1ccc(S(=O)(=O)N2CCN(Cc3nnc(-c4c(-c5ccccc5)noc4C)o3)CC2)cc1
2%	COC(=O)c1[nH]c2ccc(C)cc2c1NC(=O)c1ccccc1[N+](=O)[O-]
10%	COCCn1nnnc1C(C(C)C)N1CCC(Cc2ccccc2)CC1 (stereo unspecified)
-29%	O=C(Nc1ccc(Br)cc1)c1cccc(C(=O)Nc2ccc(Br)cc2)c1
2%	CC(C)CCNC(=O)Cc1c(C(=O)O)[nH]c2ccc(Cl)cc12
-9%	CCOC(=O)c1sc(-c2ccccc2)nc1C
-21%	O=C(Nc1ccc(SC(F)F)cc1)c1ccccc1F
-1%	CS(=O)(=O)N(CC(=O)N1CCOCC1)c1cccc(F)c1
-3%	Cc1cc(C)n2nc(N)c(N=Nc3cccc(Cl)c3)c2n1
-17%	Cc1ccc(O)c(CNc2cnc3ccccc3c2)c1
u	Cc1ccc(OCCOC(=O)Nc2ccccc2)cc1
-14%	CC(C)COc1ccc(C(=O)Nc2ccc(SC(F)F)cc2)cc1
-8%	Cc1cc(C)c2[nH]c(=O)c(CN(CC3CCCO3)C(=S)Nc3ccccc3)cc2c1 (stereo unspecified)
-1%	OCC[C@@H]1C[C@@H](O)[C@H](O)[C@]2(CCCc3ccccc3O2)O1
-11%	C/C(=N/NC(=O)c1cccs1)c1ccc(N2CCOCC2)cc1
6%	CCS(=O)(=O)NCc1cn2ccsc2n1
-7%	CCN(CC)Cc1ccc(Nc2ccnc3cc(Cl)ccc23)cc1O
8%	C=C(C)Cn1c(SCC(=O)O)nnc1-c1ccccc1
-6%	CC(=O)c1ccc(S(=O)(=O)N2CCN(CC(=O)Nc3ccnn3C3CCCC3)CC2)cc1
-10%	Cc1cccc(C)c1NC(=O)C(c1ccccc1)N1CC(=O)Nc2ccccc21 (stereo unspecified)
8%	Cc1cccc(C(=O)Nc2cccc(C(=O)OCc3cc(=O)n4nc(C(C)C)sc4n3)c2)c1
-5%	O=[N+]([O-])c1ccccc1S(=O)(=O)N1CCN(c2nc(-c3cccs3)nc3ccccc23)CC1
-7%	Cc1cccc(N2CC(C(=O)Nc3ccc4c(c3)OCO4)CC2=O)c1C (stereo unspecified)
-5%	Cc1nn(-c2ccccc2)c2sc(C(=O)OCc3nnc(-c4ccccc4)o3)cc12
3%	O=C(CCN1C(=O)C2C3C=CC(C3)C2C1=O)Nc1ccccc1 (stereo unspecified)
21%	CCN(C(=O)COC(=O)c1ccc(Cl)cc1N)C1CCCCC1
-1%	CCOC(=O)N1CCC(NC(=O)c2ccc3c(c2)ncn3C2CCCC2)CC1
-2%	O=C(NCc1nnc(SCC(=O)N2CCCC2)o1)c1ccc(F)cc1
-11%	O=C1CC(N2CCC(c3nc4ccccc4o3)CC2)C(=O)N1 (stereo unspecified)
-7%	CN1CCN(C(=O)c2ccccc2NC(=O)c2sc3ccccc3c2Cl)CC1
-22%	CC(=O)c1nn(-c2cccc(C(F)(F)F)c2)c(=O)[nH]c1=O
14%	O=C(CNCc1cccs1)Nc1ccc(OC(F)(F)F)cc1

# (further entries)
VDR inhibitor	smiles
u	Cc1ccc(C(=O)C2=C(O)C(=O)N(Cc3ccco3)C2c2cccc(Cl)c2)o1 (stereo unspecified)
7%	CCOc1cc(NC(=S)NCc2ccccc2)c(OCC)cc1NC(=O)C(C)C
24%	Cc1ccccc1/C=C1\CCCc2ccccc2C1=O
-21%	Cc1ccc(/C=C/C(=O)Nc2sc3c(c2C#N)CCCC3)o1
9%	O=C1CCCCN1CCCC(=O)N1CCCC(Nc2ccc(F)cc2)C1 (stereo unspecified)
-16%	COc1ccccc1-c1nc2n(n1)C(c1ccccc1Cl)C(C(=O)Nc1cccnc1)=C(C)N2 (stereo unspecified)
-2%	O=C(CCN1CCN(CCO)CC1)Nc1ccc(F)c(F)c1
u	O=C(O)C(=O)/C(=C\c1ccc(Cl)cc1)c1ccc2ccccc2n1
14%	C/C(N)=C(/C#N)C(=O)COC(=O)CC1CCCC1
8%	O=C(NC1CCCC1)C(c1ccc(Cl)cc1)N1CCOCC1 (stereo unspecified)
4%	Cc1c(CCOC(=O)c2cc([N+](=O)[O-])cc([N+](=O)[O-])c2)sc[n+]1CCCCS(=O)(=O)[O-]
u	Cc1nn(CCC(N)=S)c2nc(-c3cccs3)cc(C(F)(F)F)c12
-9%	COc1cc(/C=C(\C#N)c2ccccn2)ccc1OCC(=O)Nc1cccc(C(F)(F)F)c1
2%	CCc1cccc(C)c1NC(=O)CN(C)Cc1ccc(Br)cc1
11%	Cc1cc(=O)oc2cc(N3C(=O)CC(Cc4ccccc4)C3=O)ccc12 (stereo unspecified)
8%	O=C(O)COc1ccc(Oc2ccccc2)cc1
3%	Cc1ccc(-c2nnc(SCC(=O)Nc3cccnc3Cl)n2N)cc1
-6%	O=C(O)C1(c2ccccc2)CCN(S(=O)(=O)c2ccc(Br)cc2)CC1
5%	NS(=O)(=O)c1cccc(NC(=O)c2cccc(-c3ccc(O)cc3)c2)c1
-1%	O=C(CN1C(=O)NC(c2ccc(F)cc2)C1=O)Nc1ccc2c(c1)OCCO2 (stereo unspecified)
8%	O=C(c1ccc(Cl)cc1[N+](=O)[O-])N1CCOCC1
-3%	O=C(Nc1ccc(S(=O)(=O)Nc2nccs2)cc1)C1CC(=O)N(c2ccccc2)C1 (stereo unspecified)
7%	COc1ccc(OC)c(S(=O)(=O)Nc2cc3c(cc2C)n(C)c(=O)c(=O)n3C)c1
7%	N=c1ccn(Cc2ccccc2Cl)cc1
0%	COCCN(C(=O)CSc1nc2ccccc2o1)c1c(N)n(Cc2ccccc2)c(=O)[nH]c1=O
7%	COc1ccc(CN(C)CCCn2cnc(C(=O)Nc3ccc(C)c(C)c3)n2)cc1OC
-25%	Fc1ccc(OCc2nc(-c3ccncc3)n[nH]2)cc1
7%	COc1ccccc1Nc1ccc2nonc2c1[N+](=O)[O-]
7%	COc1ccc(-n2ccnc(NCc3ccc(C)cc3)c2=O)cc1OC
-4%	Cc1nnc(NC(=O)c2oc3ccccc3c2C)s1
47%[activator]	CC(C)Cn1c(=O)c2ccccc2n2c(CCC(=O)NC3CCN(Cc4ccccc4)CC3)nnc12
-1%	Cc1cc(NC(=O)CSc2nc3c(c(=O)n2-c2ccc(Cl)cc2)SCC3)no1

# Of the compounds above, 13 contain an aryl thioether with sulfur outside any ring.
VDR inhibitor	smiles
0%	Cc1cc(C)n2nc(SCC(=O)N3CCCCC3C)nc2n1 (stereo unspecified)
-20%	Nn1c(SCC(=O)NCCC2=CCCCC2)nnc1C1CCCCC1
-6%	COc1ccc(Sc2ccc(-c3nc4cnccn4c3NC3CCCCC3)cc2OC)cc1
3%	O=C(O)c1ccc(CSc2n[nH]c(-c3ccco3)n2)cc1
1%	Clc1ccc(CSc2nnc(-c3ccncc3)o2)c(Cl)c1
0%	CCOc1cc(CNCCSc2nnnn2C)cc(Br)c1OCc1ccccc1F
-21%	O=C(Nc1ccc(SC(F)F)cc1)c1ccccc1F
-14%	CC(C)COc1ccc(C(=O)Nc2ccc(SC(F)F)cc2)cc1
8%	C=C(C)Cn1c(SCC(=O)O)nnc1-c1ccccc1
-2%	O=C(NCc1nnc(SCC(=O)N2CCCC2)o1)c1ccc(F)cc1
3%	Cc1ccc(-c2nnc(SCC(=O)Nc3cccnc3Cl)n2N)cc1
0%	COCCN(C(=O)CSc1nc2ccccc2o1)c1c(N)n(Cc2ccccc2)c(=O)[nH]c1=O
-1%	Cc1cc(NC(=O)CSc2nc3c(c(=O)n2-c2ccc(Cl)cc2)SCC3)no1

# These rows are one share of the data; the hit share may differ from the screen's.
